Assay outcomes: PubChem, ICCB-Longwood Screening Facility, Harvard Medical School
PV pol inh: poliovirus RNA polymerase inhibition; P03300; poliovirus polymerase elongation, fluorescence polarization; hits give low values; % elongation, % (compound at 16.7 µg/mL); 150,000 compounds, 0.66% hits; AID 588519; in the data active = % elongation below about 90%; also: some results filed as inactive read as strong as hits
Target sequence (P03300 1749-2209 limits assumed): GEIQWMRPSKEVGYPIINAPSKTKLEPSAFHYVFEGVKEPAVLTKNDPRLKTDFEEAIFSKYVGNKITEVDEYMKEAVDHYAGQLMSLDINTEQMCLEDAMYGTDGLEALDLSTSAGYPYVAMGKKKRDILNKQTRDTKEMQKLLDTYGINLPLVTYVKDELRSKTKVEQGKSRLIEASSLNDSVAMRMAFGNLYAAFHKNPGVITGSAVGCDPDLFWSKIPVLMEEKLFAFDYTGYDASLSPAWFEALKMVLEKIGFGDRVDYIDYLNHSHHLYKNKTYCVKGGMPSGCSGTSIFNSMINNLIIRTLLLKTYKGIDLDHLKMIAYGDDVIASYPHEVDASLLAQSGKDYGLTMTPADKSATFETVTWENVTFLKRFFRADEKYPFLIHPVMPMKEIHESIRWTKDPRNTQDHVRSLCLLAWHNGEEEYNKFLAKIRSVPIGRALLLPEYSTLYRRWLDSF
MbtI inh: inhibitors of Mycobacterium tuberculosis siderophore enzyme MbtI. P9WFX0. purified MbtI enzyme, fluorescence intensity read-out. inhibition, %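 (about 17 µg/mL by stock and volumes)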. 100,000 compounds, 0.89% hits. AID 493033;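 active = above 50% in both replicates, above 80% if mildly self-fluorescent; inactive = the rest, strongly fluorescent compounds included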;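 also: 0% = mean of negative and 100% = mean of positive controls; one replicate is shown; some compounds called inactive have numbers as strong as hits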
Target sequence (P9WFX0 whole entry, looked up): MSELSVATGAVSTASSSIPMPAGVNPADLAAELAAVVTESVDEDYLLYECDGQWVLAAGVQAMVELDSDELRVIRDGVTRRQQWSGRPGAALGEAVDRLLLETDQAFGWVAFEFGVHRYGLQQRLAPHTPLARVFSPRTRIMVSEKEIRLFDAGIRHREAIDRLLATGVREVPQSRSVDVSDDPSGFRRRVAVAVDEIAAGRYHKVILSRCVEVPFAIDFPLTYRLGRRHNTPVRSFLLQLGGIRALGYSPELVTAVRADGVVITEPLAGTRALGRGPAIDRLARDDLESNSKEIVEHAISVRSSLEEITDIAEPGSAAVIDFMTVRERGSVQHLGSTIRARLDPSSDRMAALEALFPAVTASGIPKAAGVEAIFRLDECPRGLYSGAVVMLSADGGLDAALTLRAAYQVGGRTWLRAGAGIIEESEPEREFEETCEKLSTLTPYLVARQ
MenB inh: inhibitors of Mycobacterium tuberculosis MenB enzyme; P9WNP5; MenB enzyme assay, absorbance read-out; some hits fall short of the stated cut; inhibition, %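 (about 12 µg/mL by stock and volumes)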; 100,000 compounds, 0.43% hits;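 active = mean of two replicates above 30%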;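 also: 0% = no compound and 100% = wells with inactive enzyme; the first replicate is given; strong numbers were not always called active; inactives centre near -10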
PV pol inh intensity: also measured in PV pol inh; calls as there; % elongation; measured here: total intensity read-out; formula for this scale not given here;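 total fluorescence in place of polarization; lower means less elongation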
The depositor's hits bear a star; x = not tested or not shown; & = joins results of further samples. Outcome played no part in choosing rows; 1.7% or so of the library scored in one or more.

SMILES | PV pol inh | PV pol inh intensity | MbtI inh | MenB inh
O=C(CCCn1sc2ccccc2c1=O)NCCc1ccccc1 | 105 | 105 | 78 | -15
CC1=C(C(=O)N2CCCCC2)C(c2ccc(O)cc2)C2=C(CC(C)(C)CC2=O)N1 (configuration not stated) | 101 | 104 | -8 | -9
N#CC1=C(N)NC(SCC(=O)Nc2ccc(Br)cc2)=C(C#N)C12CCCCC2 | 102 | 102 | -1 | -12
O=C(COC(=O)c1cccc(F)c1)Nc1cc(Cl)cc(Cl)c1 | 99 | 101 | -5 | x
CN=c1scc(C)n1/N=C/c1c(Cl)cccc1Cl | 105 | 103 | -5 | 6
CCCCN(C(=O)c1ccccc1)c1ccccc1 | 101 | 103 | -19 | -92
CCCCc1nnc(N)s1 | 102 | 104 | -6 | x
Cc1cccc(CCNC(=O)c2cc3c(C)nc4ccccc4c3o2)c1 | 101 | 100 | 16 | -35
CC(NC(=O)C1CCCN(C(=O)c2cc3sccc3n2C)C1)C12CC3CC(CC(C3)C1)C2 (configuration not stated) | 101 | 103 | -1 | -8
C=CCOc1ccc(/C=C/C(=O)N2CCN(S(=O)(=O)c3cccs3)CC2)cc1 | x | x | 7 | -13
FC(F)(F)c1ccc2nnnn2c1 | 102 | 98 | 1 | x
O=C(CSc1ccccc1)Nc1cccc(C(=O)O)c1 | 106 | 100 | 12 | -26
Cc1cc(NC(=O)CCn2ccc(C)n2)c2ccccc2n1 | 99 | 101 | -11 | -4
Cc1nccn1-c1cc(C(C)C)c(C#N)c2nc3ccccc3n12 | 103 | 99 | -10 | -22
COC(=O)C1=C2C(=O)NCCN2C2=C(C(=O)CCC2)C1c1ccc(OC)c(OC)c1 (configuration not stated) | 102 | 102 | -3 | -16
CC(C)(C)OC(=O)C1CCC(C(=O)Oc2ccc3c4c(c(=O)oc3c2)CCCC4)CN1 (configuration not stated) | 105 | 104 | x | -18
Cc1ccnc(NS(=O)(=O)c2ccc(N=Cc3c(O)n(C)c(=O)n(C)c3=O)cc2)n1 | 105 | 106 | 4 | -11
O=C(C1CCCN1S(=O)(=O)c1cccc2nsnc12)N1CCN(Cc2ccc3c(c2)OCO3)CC1 (configuration not stated) | 98 | 105 | 2 | -19
O=C(COc1ncnc2cc(Cl)ccc12)c1ccc(F)cc1 | 105 | 109 | -10 | -11
Cc1c(C#N)c(NC(=O)CN2CCCC2c2cccs2)n(Cc2ccco2)c1C (configuration not stated) | 100 | 109 | -16 | -31
CCOC(=O)c1sc2ncn(/N=C/N(C)C)c(=O)c2c1C | 100 | 100 | -29 | -25
O=C1CCc2nc3ccccc3n21 | 95 | 88 | 5 | -21
Cc1cc(C(=O)OC2CCOC2=O)c(C)n1-c1ccccc1 (configuration not stated) | 101 | 95 | -1 | x
CCOC(=O)c1cc(CO)c(C)nc1C | 102 | 107 | -12 | x
N#CCCCn1c(O)c(N=NC(=O)C2COc3ccccc3O2)c2ccccc21 (configuration not stated) | 99 | 103 | 14 | 0
C/C(=N\n1nnnc1Nc1ccccc1)c1ccccc1Cl | 108 | 115 | x | -16
Nc1c(C(=O)NCC2CCCO2)c2nc3ccccc3nc2n1Cc1ccco1 (configuration not stated) | 99 | 106 | 103 | -84
CC(NC(=O)c1ccc2c(c1)OCCO2)c1ccc2c(c1)OCO2 (configuration not stated) | 98 | 100 | 2 | 9
O=C(COc1ccc(Br)cc1F)NCCc1ccccn1 | 103 | 108 | -12 | -22
CCN1CCN(CCC(=O)Nc2sc(-c3ccccc3)cc2C(=O)OC)CC1 | 98 | 93 | 1 | -9
CC1CCC(C(C)C)C(OC(=O)CSc2nnc(-c3cccnc3)n2N)C1 (configuration not stated) | 102 | 96 | 8 | 3
COc1ccc(OCc2nnc(SC(C)c3nc4ccccc4c(=O)[nH]3)n2C)cc1 (configuration not stated) | 102 | 100 | 3 | 21
CCOC(=O)N1CCN(C(=O)COC(=O)C(C)N=C2NS(=O)(=O)c3ccccc32)CC1 (configuration not stated) | 106 | 108 | -4 | -12
Cc1cc(NC(=O)c2ccccc2)n(CCOC(=O)c2ccccc2)n1 | 101 | 106 | -12 | x
CC(C)(C)Nc1nc(NC(C)(C)C)nc(N2CCNCC2)n1 | 105 | 107 | x | -2
Cc1ccc(C(=O)N[C@H](C(=O)NC2CCCCC2)C(C)C)cc1 | 102 | 107 | -18 | -41
O=C(COCC(=O)N1CCCc2ccccc21)N1CCCc2ccccc21 | 102 | 99 | 1 | x
CC(C)N(Cc1ccccc1)C(=S)Nc1cccnc1 | 108 | 109 | x | -2
CCC(C)c1ccc(NC(=O)c2cc3ccccc3o2)cc1 (configuration not stated) | 101 | 99 | 5 | -22
COC(=O)CCS(=O)(=O)c1ccc(Br)cc1 | 101 | 105 | x | -1
COc1ccc(-c2nnn(CC(=O)N(CC3CCCO3)C(C(=O)NC3CCCCC3)c3cccs3)n2)cc1 (configuration not stated) | 101 | 102 | -12 | -11
CCOc1ccc(S(=O)(=O)NCC(C)(C)N2CCOCC2)cc1 | 107 | 108 | -4 | -1
CN(CCNc1nc(-c2ccccc2)no1)Cc1ccccc1 | 100 | 103 | -10 | -13
CC(=O)Nc1c(O)nc(SCC(=O)N(C2CCCCC2)C2CCCCC2)[nH]c1=O | 102 | 103 | 1 | -18
COc1cccc(/C=C/C(=O)N2CCN(c3n[nH]c(=O)[nH]c3=O)CC2)c1OC | 106 | 103 | 9 | -9
Cc1cccc(N2C(=O)CS/C2=N\NC(=O)c2cccnc2)c1C | 103 | 102 | 18 | 22
S=C(NCC1CCCO1)N1CCN(C2CCCCC2)CC1 (configuration not stated) | 103 | 100 | -12 | -26
Cn1cc(C(=O)N2CCCc3ccccc32)c(-c2ccc3c(c2)OCCCO3)n1 | 105 | 108 | 6 | -8
COc1ccc(C2C(C(N)=O)C(=O)NC(O)(c3ccccc3)C2C#N)cc1 (configuration not stated) | 99 | 104 | -8 | -7
O=c1ccc(Cl)nn1-c1ccccc1 | 99 | 100 | 9 | 11
Following part.
SMILES | PV pol inh | PV pol inh intensity | MbtI inh | MenB inh
COC(=O)c1ccc(COC(=O)c2cc(OC)cc(OC)c2)cc1 | 100 | 97 | 17 | -23
CCC(C)(C)NS(=O)(=O)c1cc2[nH]c(=O)c(=O)[nH]c2cc1C | 101 | 105 | 91 | -27
CN(CC(=O)NCc1cccs1)c1ccccc1 | 108 | 107 | 6 | 2
C=CCN1C(=O)C(C)(C)S/C1=N\S(=O)(=O)c1ccc(C)cc1 | 101 | 107 | -9 | -30
Cc1csc(SCc2cc(=O)c(OC(=O)c3ccc(S(=O)(=O)N4CCOCC4)cc3)co2)n1 | 104 | 96 | -5 | -25
CN(C)S(=O)(=O)N1CCC(Oc2cccc(-n3cnnn3)c2)CC1 | 101 | 101 | 18 | 0
CN(C)/C=C/C(=O)c1cccs1 | 101 | 101 | 9 | -81
CC1CCc2c(sc3nc(CSc4nnc(-c5ccccc5)o4)[nH]c(=O)c23)C1 (configuration not stated) | 111 | 118 | -3 | -50
Clc1ccc(CNc2ncnc3[nH]ncc23)c(Cl)c1 | 105 | 109 | -217 | -9
N#CC1=C(SCc2ccccc2)SC(CO)NC1=O (configuration not stated) | 100 | 101 | 11 | 38*
NS(=O)(=O)c1ccc(N=Cc2c(O)ccc3ccccc23)cc1 | 113 | 128 | x | -46
O=C(COc1c(-c2ccco2)oc2ccccc2c1=O)NCCc1ccccc1 | 104 | 105 | 12 | -26
O=C(CCCN1C(=O)CSc2ncccc21)NCCc1ccccc1 | 101 | 103 | 3 | -1
CN(C)c1c(F)cc(C(=O)NC(=O)NC2=NCCS2)cc1F | 104 | 110 | -1 | -9
Cc1ccc(/C=C/C(=O)NC(c2ccc3c(c2)OCCCO3)C(C)C)o1 (configuration not stated) | 103 | 97 | 24 | -8
O=C1CCCN1c1ccc(S(=O)(=O)Nc2ccc3oc4c(c3c2)CCCC4)cc1 | 101 | 103 | -16 | -11
N=C1CC(=O)N=C2SC(C3CC3)=NN12 | 107 | 99 | 0 | -26
COc1ccc(C(=O)O/N=C2\C(=O)N(C)c3ccccc32)cc1 | 101 | 101 | -9 | -2
CCN(CC(=O)NC1CCS(=O)(=O)C1)C(=O)/C=C/c1cccs1 (configuration not stated) | 103 | 97 | 5 | 2
C=CCn1c(=O)[nH]c2c1c(=O)n(C)c(=O)n2C | 102 | 103 | 1 | -6
C=CCn1c(C(C)O)nc2ccccc21 (configuration not stated) | 103 | 103 | -4 | -8
COc1cccc(N=c2scc(-c3ccco3)n2CC2CCCO2)c1 (configuration not stated) | 112 | 110 | 21 | -39
CC(=O)OCC1OC(n2c(Br)nc3c(N)ncnc32)C(OC(C)=O)C1OC(C)=O (configuration not stated) | 100 | 106 | 3 | -26
COc1ccc(-c2ccc(CO)o2)cc1N | 103 | 103 | 89 | 3
O=C(C1c2ccccc2Oc2ccccc21)N1CCC2(CC1)OCCO2 | 98 | 101 | -4 | -13
O=C(NCCOc1ccc2c(c1)OCO2)C1CCN(C(=O)NC2CCCCC2)CC1 | 102 | 104 | -19 | -13
NC(=O)CSc1nc2ccccc2c(=O)n1Cc1ccccc1 | 102 | 95 | x | -16
Cc1ccc(-c2noc(CN(C(=O)Nc3ccccc3C)C(C)C)n2)cc1 | 100 | 103 | 0 | 5
Cn1c(C(C(=O)NCC2CCCO2)N(C(=O)Cn2nnc3ccccc32)c2ccc3c(c2)OCO3)nc2ccccc21 (configuration not stated) | 103 | 102 | -16 | -22
Fc1ccc(-n2ncc3c(N4CCc5ccccc54)ncnc32)cc1 | 99 | 99 | 11 | -15
CCOc1ccc2nc(SCc3nc4ccccc4[nH]3)sc2c1 | 105 | 114 | x | -8
Fc1ccccc1N1CCN(c2c3c(nc4ccc(Cl)cc24)CCC3)CC1 | 101 | 101 | 11 | -21
CCSc1ccc(SC#N)s1 | 95 | 92 | 54 | -76
Cc1cc2[nH]c(=O)c(=O)[nH]c2cc1S(=O)(=O)NC1CCCC1 | 105 | 108 | 92 | -17
CCCCCCCCCCCCCCCC(=O)OCC(COP(=O)(O)O)OC(=O)CCCCCCCCCCCCCCC (configuration not stated) | 98&99 | 100&103 | -17 | 8
CCOC(=O)c1cc(-c2cc3ccccc3o2)nn1CCC#N | 112 | 114 | -28 | -17
CCn1c(=S)[nH]c2nc3c(cc2c1=O)COC(C)(C)C3 | 103 | 103 | -7 | -13
CCCN(c1ccc(F)cc1)c1nc(-c2ccc(OC)cc2)no1 | 101 | 102 | -1 | 12
S=c1[nH]ccn1CCc1ccccc1 | 103 | 102 | x | -15
Cc1ccccc1NC(=O)CCC(=O)OC1CCC(C(C)(C)C)CC1 (configuration not stated) | 107 | 106 | x | -7
C=CCN(c1ccccc1)S(=O)(=O)c1ccc2c(c1)SC(C)C(=O)N2 (configuration not stated) | 101 | 99 | -9 | -18
CCOC(=O)c1c(N)c(C#N)n2c1CCC2 | 100 | 101 | 8 | 13
CN(Cc1ccccc1)C(=O)c1cccc(C(=O)N(C)Cc2ccccc2)c1 | 106 | 108 | x | -15
CCCCCN1N=C(C)CC1=O | 102 | 102 | -5 | -42
O=C(c1c[nH]c2ccccc12)C(F)(F)F | 99 | 100 | 4 | -1
Cc1nc(C)c(C(=O)O)c(-c2ccc(Cl)cc2)c1C(=O)O | 99 | 100 | 1 | -67
COc1cc(OC)cc(C(=O)Nc2ccc(O)c(-c3nc4cc(C)c(C)cc4o3)c2)c1 | 102 | 101 | -7 | -28
Cc1ccc(Cc2nc(-c3ccc(Cl)cc3)cs2)cc1 | 99 | 102 | -3 | -20
N#Cc1cccc(C(F)(F)F)c1 | 98 | 101 | 0 | -4
O=C(CCn1c(=O)oc2cc(Cl)ccc21)n1c(=O)oc2cc(Cl)ccc21 | 97 | 94 | x | -11
Following part:
SMILES | PV pol inh | PV pol inh intensity | MbtI inh | MenB inh
NNC(=O)c1ccc2c(=O)n3c(nc2c1)CCCCC3 | 103 | 105 | 1 | 3
COc1cccc(-c2nn(C)c3sc(C(=O)N4CCN(c5ccccc5)CC4)cc23)c1 | 104 | 104 | -3 | -26
FC(F)(F)c1nnc(Nc2cccnc2)s1 | 101 | 105 | 6 | 4
S=C1NCN(C2CCCCC2)CN1 | 104 | 106 | 11 | -57
Cc1cc(C(=O)OCC(=O)N(c2ccccc2)c2ccccc2)c2ccccc2n1 | 105 | 103 | x | -19
